Screening data: PubChem BioAssay, Broad Institute
Vaccinia stage: blocks a specific stage of Vaccinia orthopoxvirus infection, primary screen, cell-based, single point | activity change (mCherry), % (no concentration beside the values) | 89,000 tested, 0.01% active | Vaccinia-infected cells, mCherry/Venus stage reporter fluorescence; hits give low values; some inactives read as strong as hits | AID 1053133, 2014;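 active means mCherry past -33% and 40 or more points under the early reporter, replicates agreeing; inconclusive means past -33% without that gap or agreement; tested in A549 cells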;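 further: scaled between vehicle wells and reference inhibitor wells; 23 nL library stock went into each well; one replicate is shown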
Vaccinia stage Venus: also measured in Vaccinia stage; calls as there; activity change (Venus), %; measured here: Venus reporter, other viral stage;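 negative = less Venus signal; first of two replicates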
Numbers without * were called inactive; u = inconclusive; x = not tested or not shown. This is a subset; the hit share may differ from the screen's.

The first 10 compounds (preview)
SMILES | Vaccinia stage | Vaccinia stage Venus
C[C@@H]1CCCCO[C@@H](CN(C)Cc2ccccc2)[C@@H](C)CN([C@@H](C)CO)C(=O)c2cc(NS(=O)(=O)c3ccc(F)cc3)ccc2O1 | -35 | -33
COc1ccc(NC(=O)Nc2ccc3c(c2)C(=O)N([C@@H](C)CO)C[C@H](C)[C@@H](CN(C)Cc2ccc(C(F)(F)F)cc2)OCCCC[C@@H](C)O3)cc1 | u | x
CCC(=O)N1CC2(C1)CN(Cc1cccc(OC)c1)[C@@H](CO)c1[nH]c3cc(OC)ccc3c12 | 24 | 8
COc1ccc(NC(=O)N2CC3(C2)CN(C(=O)c2cccnc2)[C@@H](CO)c2[nH]c4cc(OC)ccc4c23)cc1 | 7 | 6
C[C@@H]1CCCCO[C@@H](CN(C)Cc2ccc3c(c2)OCO3)[C@H](C)CN([C@H](C)CO)C(=O)c2cc(NC(=O)Nc3ccccc3)ccc2O1 | u | x
COC(=O)c1ccc(CN2CC(=O)N3[C@H](CO)[C@H](c4ccc(-c5ccccc5F)cc4)[C@@H]3C2)cc1 | 10 | 2
C[C@@H]1CN([C@H](C)CO)C(=O)c2cccc(NC(=O)Nc3cccc4ccccc34)c2O[C@@H]1CN(C)Cc1ccc2c(c1)OCO2 | 12 | 0
C[C@H]1CN([C@@H](C)CO)C(=O)c2cc(NC(=O)c3ccncc3)ccc2O[C@H]1CN(C)C(=O)NC1CCCCC1 | 4 | 1
O=C(C[C@H]1C[C@H]2c3cc(NC(=O)Nc4ccccc4)ccc3O[C@H]2[C@@H](CO)O1)NCc1ccncc1 | -8 | -2
O=C(c1cnccn1)N1CC(=O)N2[C@@H](CO)[C@H](c3ccc(C4=CCCCC4)cc3)[C@@H]2C1 | 6 | 4

Results (from the top)
SMILES | Vaccinia stage | Vaccinia stage Venus
C[C@@H]1CCCCO[C@@H](CN(C)Cc2ccccc2)[C@@H](C)CN([C@@H](C)CO)C(=O)c2cc(NS(=O)(=O)c3ccc(F)cc3)ccc2O1 | -35 | -33
COc1ccc(NC(=O)Nc2ccc3c(c2)C(=O)N([C@@H](C)CO)C[C@H](C)[C@@H](CN(C)Cc2ccc(C(F)(F)F)cc2)OCCCC[C@@H](C)O3)cc1 | u | x
CCC(=O)N1CC2(C1)CN(Cc1cccc(OC)c1)[C@@H](CO)c1[nH]c3cc(OC)ccc3c12 | 24 | 8
COc1ccc(NC(=O)N2CC3(C2)CN(C(=O)c2cccnc2)[C@@H](CO)c2[nH]c4cc(OC)ccc4c23)cc1 | 7 | 6
C[C@@H]1CCCCO[C@@H](CN(C)Cc2ccc3c(c2)OCO3)[C@H](C)CN([C@H](C)CO)C(=O)c2cc(NC(=O)Nc3ccccc3)ccc2O1 | u | x
COC(=O)c1ccc(CN2CC(=O)N3[C@H](CO)[C@H](c4ccc(-c5ccccc5F)cc4)[C@@H]3C2)cc1 | 10 | 2
C[C@@H]1CN([C@H](C)CO)C(=O)c2cccc(NC(=O)Nc3cccc4ccccc34)c2O[C@@H]1CN(C)Cc1ccc2c(c1)OCO2 | 12 | 0
C[C@H]1CN([C@@H](C)CO)C(=O)c2cc(NC(=O)c3ccncc3)ccc2O[C@H]1CN(C)C(=O)NC1CCCCC1 | 4 | 1
O=C(C[C@H]1C[C@H]2c3cc(NC(=O)Nc4ccccc4)ccc3O[C@H]2[C@@H](CO)O1)NCc1ccncc1 | -8 | -2
O=C(c1cnccn1)N1CC(=O)N2[C@@H](CO)[C@H](c3ccc(C4=CCCCC4)cc3)[C@@H]2C1 | 6 | 4
O=C(CC1CC1)N1[C@@H](CO)[C@H](c2ccccc2)C12CN(Cc1ccncc1)C2 | 16 | 19
C[C@@H]1CN([C@@H](C)CO)C(=O)c2cccc(NS(=O)(=O)c3ccccc3)c2O[C@@H]1CN(C)CC1CCCCC1 | -9 | -7
COc1ccc(S(=O)(=O)Nc2ccc3c(c2)CC(=O)N([C@@H](C)CO)C[C@H](C)[C@H](CN(C)Cc2ccc(C(=O)Nc4ccccc4N)cc2)O3)cc1 | 19 | 15
C[C@H](CO)N1C[C@H](C)[C@H](CN(C)Cc2ccccc2)Oc2ccc(NC(=O)Cn3cnnn3)cc2C1=O | -6 | -1
O=C(c1cccnc1)N1CC2(C1)[C@H](c1ccccc1)[C@@H](CO)N2C(=O)c1cccnc1 | 12 | 6
CNC(=O)C[C@@H]1CC[C@@H]2[C@@H](COc3ccc(NC(=O)c4ccccc4OC)cc3C(=O)N2C)O1 | 2 | 4
CO[C@@H]1CN(C)C(=O)c2cc(NC(C)=O)ccc2OC[C@H](C)N(C(=O)c2ccccc2F)C[C@@H]1C | 0 | -2
COc1ccc(S(=O)(=O)Nc2ccc3c(c2)CC(=O)N([C@H](C)CO)C[C@H](C)[C@H](CN(C)S(=O)(=O)c2ccc(C)cc2)O3)cc1 | -12 | -7
CCN1[C@@H]2Cn3c(ccc(-c4cccc(F)c4)c3=O)[C@H]1[C@@H](C(=O)NCCCN(C)C)[C@@H]2CO | 18 | 7
COc1ccc(S(=O)(=O)Nc2ccc3c(c2)C(=O)N([C@H](C)CO)C[C@H](C)[C@@H](CN(C)C(=O)Nc2c(C)noc2C)OCCCC[C@H](C)O3)cc1 | 16 | 11
C[C@H]1CCCCO[C@@H](CN(C)Cc2ccncc2)[C@@H](C)CN([C@@H](C)CO)C(=O)c2cc(NC(=O)NC3CCCCC3)ccc2O1 | -13 | -5
C[C@@H]1CN([C@H](C)CO)S(=O)(=O)c2ccc(C#Cc3ccccc3)cc2O[C@H]1CN(C)C(=O)Cc1ccccn1 | -28 | -10
C[C@H](CO)N1C[C@H](C)[C@H](CN(C)S(=O)(=O)c2cccs2)Oc2c(NC(=O)c3ccc(-c4nccs4)cc3)cccc2C1=O | 16 | 8
CCCN(C)C[C@@H]1Oc2cc(C#Cc3ccc(F)cc3)ccc2S(=O)(=O)N([C@@H](C)CO)C[C@@H]1C | u | x
COCC(=O)Nc1ccc2c(c1)OC[C@@H](C)N(Cc1ccccc1C(=O)O)C[C@@H](C)[C@H](OC)CN(C)C2=O | 15 | 3
O=S(=O)(c1ccccc1)N1CC[C@@H]2[C@@H](CO)Nc3ccc(-c4ccccc4F)cc3[C@@H]21 | u | x
C[C@@H]1CN([C@@H](C)CO)C(=O)Cc2cc(NC(=O)Nc3ccc(C(F)(F)F)cc3)ccc2O[C@@H]1CN(C)CC1CCCCC1 | -33 | -30
C[C@@H]1CN([C@@H](C)CO)C(=O)Cc2cc(NC(=O)C3CCCCC3)ccc2O[C@H]1CN(C)CC1CCCCC1 | u | x
N#Cc1ccc(-c2ccc(C3[C@@H]4CN(C(=O)C5CCCC5)C[C@H]3N4)cc2)cc1 (stereo partly specified) | u | -3
CN1[C@H](C(=O)NC2CCC2)[C@@H](CO)[C@@H]2Cn3c(ccc(-c4cccc(F)c4)c3=O)[C@@H]21 | 18 | 3
Cc1ccc(OC(=O)N(C)C[C@H]2OCc3cn(nn3)CCCC(=O)N([C@H](C)CO)C[C@@H]2C)cc1 | 7 | 11
C[C@H](CO)N1C[C@H](C)[C@@H](CN(C)C(=O)C2CCC2)Oc2cc(C#C[C@@H](C)O)ccc2S1(=O)=O | 3 | -2
C[C@@H]1CN([C@@H](C)CO)C(=O)c2cc(NS(=O)(=O)c3ccc(F)cc3)ccc2O[C@@H]1CN(C)C | -1 | -3
Cc1ccc(S(=O)(=O)NCC[C@H]2CC[C@@H](NC(=O)NC(C)C)[C@@H](CO)O2)cc1 | -9 | 0
CO[C@@H]1CN(C)C(=O)c2cc(NC(=O)Nc3ccc4c(c3)OCO4)ccc2OC[C@H](C)NC[C@H]1C | 15 | 10
CO[C@H]1CN(C)C(=O)c2ccc(NC(C)=O)cc2OC[C@H](C)N(C(=O)C2CCOCC2)C[C@H]1C | 9 | 6
CNC(=O)C[C@@H]1CC[C@H]2[C@@H](COC[C@H](O)CN2S(=O)(=O)c2ccc(Oc3ccccc3)cc2)O1 | -3 | -6
Cc1cccc(-c2ccc([C@@H]3[C@@H](CO)N4C(=O)CN(S(=O)(=O)c5cccc(F)c5)C[C@@H]34)cc2)c1 | u | x
Fc1ccccc1CN1[C@@H]2CNC[C@H]1C2c1ccc(-c2ccccc2)cc1 (stereo partly specified) | 5 | 1
Cc1ccc(-c2ccc([C@@H]3[C@H](CO)N4C(=O)CN(C(=O)CN5CCOCC5)C[C@@H]34)cc2)cc1 | 16 | -9
O=C(C[C@@H]1C[C@H]2c3cc(NC(=O)C4CCC4)ccc3O[C@H]2[C@@H](CO)O1)NCc1ccc(Cl)cc1 | 3 | 1
CN(C)C(=O)c1cccc(-c2ccc([C@@H]3[C@@H](C#N)N(C(=O)C4CCCC4)[C@H]3CO)cc2)c1 | -4 | -2
COc1ccccc1CNC(=O)C[C@@H]1CC[C@H]2[C@@H](COC[C@@H](O)CN2C(=O)Nc2ccc(C(F)(F)F)cc2)O1 | -34 | -19
CC(C)C#Cc1cnc2c(c1)C(=O)N([C@H](C)CO)C[C@@H](C)[C@H](CN(C)C(=O)c1ccccn1)O2 | 31 | 17
CC(C)NC(=O)Nc1cccc2c1O[C@@H](CN(C)C(=O)Nc1cccc3ccccc13)[C@@H](C)CN([C@@H](C)CO)C2=O | u | x
Cc1noc(C)c1NC(=O)N(C)C[C@H]1Oc2cc(C#CCN(C)C)ccc2S(=O)(=O)N([C@H](C)CO)C[C@H]1C | 35 | 15
COc1ccccc1-c1ccc2c(c1)O[C@H](CN(C)C(=O)c1ccccc1)[C@@H](C)CN([C@H](C)CO)S2(=O)=O | 4 | -12
CCCC#Cc1cnc2c(c1)C(=O)N([C@@H](C)CO)C[C@H](C)[C@H](CN(C)Cc1ccc(C(=O)O)cc1)O2 | 17 | 2
OC(CSc1ccccn1)CC(O)c1ccccc1 (stereo unspecified) | 16 | 16
CO[C@@H]1CN(C)C(=O)c2ccc(NC(=O)C3CC3)cc2OC[C@@H](C)N(C(=O)c2cnccn2)C[C@@H]1C | 13 | 3

Further records:
SMILES | Vaccinia stage | Vaccinia stage Venus
CC(C)NC(=O)Nc1ccc2c(c1)C(=O)N(C)[C@H]1CC[C@@H](CC(=O)NCC3CCCCC3)O[C@H]1CO2 | -2 | 5
C[C@@H]1CCCCO[C@@H](CN(C)Cc2ccccc2)[C@@H](C)CN([C@H](C)CO)C(=O)c2cc(NS(=O)(=O)c3ccccc3)ccc2O1 | -10 | -15
O=C(C[C@@H]1C=C[C@@H](NC(=O)C2CCOCC2)[C@H](CO)O1)NCC1CC1 | 2 | 1
CCO[C@@H]1OC(C(=O)Nc2ccccc2)=C[C@H](c2ccc(Br)cc2)[C@H]1CCCO | -11 | -6
Cc1noc(C)c1NC(=O)Nc1ccc2c(c1)CC(=O)N([C@@H](C)CO)C[C@H](C)[C@@H](CN(C)Cc1ccc(Cl)c(Cl)c1)O2 | 6 | 5
O=C(N[C@@H]1C=C[C@H](CC(=O)N2CCN(c3ccccc3)CC2)O[C@@H]1CO)c1ccncc1 | 0 | 8
C[C@@H]1CCCCO[C@@H](CN(C)S(=O)(=O)c2ccccc2)[C@H](C)CN([C@@H](C)CO)C(=O)c2cc(NC(=O)Nc3ccc4c(c3)OCO4)ccc2O1 | 4 | 6
CC(C)NC(=O)Nc1ccc2c(c1)C(=O)N([C@H](C)CO)C[C@@H](C)[C@@H](CN(C)C(=O)c1ccncc1)OCCCC[C@H](C)O2 | 30 | 9
C[C@@H]1CCCCO[C@@H](CN(C)C(=O)CCC(F)(F)F)[C@@H](C)CN([C@@H](C)CO)C(=O)c2cc(NC(=O)NC3CCCCC3)ccc2O1 | -12 | -7
CO[C@@H]1CN(C)C(=O)c2cc(NC(=O)c3cccc(F)c3)ccc2OC[C@H](C)NC[C@@H]1C | -1 | 10
C[C@H]1CCCCO[C@H](CN(C)C(=O)c2ccncc2)[C@@H](C)CN([C@@H](C)CO)C(=O)c2cc(N(C)C)ccc2O1 | 10 | 12
O=S(=O)(N[C@H]1CC[C@H](CCn2cc(-c3cccnc3)nn2)O[C@H]1CO)c1ccc(Cl)cc1 | 0 | 1
C[C@H](CO)N1C[C@H](C)[C@@H](CN(C)C(=O)Nc2ccc(F)cc2)OCCCC[C@H](C)Oc2ccc(NC(=O)CCC(F)(F)F)cc2C1=O | 3 | 4
CO[C@@H](CN(C)S(=O)(=O)c1cccc(Cl)c1)[C@H](C)CN(C(=O)Nc1ccccc1F)[C@H](C)CO | 8 | 12
CNC(=O)C[C@H]1CC[C@@H]2[C@H](COC[C@H](O)CN2C(=O)Nc2ccc(Cl)c(Cl)c2)O1 | -16 | -11
C[C@@H]1CN([C@H](C)CO)C(=O)c2cccc(NC(=O)C3CCOCC3)c2O[C@H]1CN(C)Cc1ccc(Cl)c(Cl)c1 | -13 | -6
Cc1noc(C)c1NC(=O)Nc1ccc2c(c1)CC(=O)N([C@@H](C)CO)C[C@@H](C)[C@@H](CN(C)C(=O)Nc1ccc(C(F)(F)F)cc1)O2 | 11 | 9
C[C@@H]1CN([C@@H](C)CO)C(=O)c2cc(Br)cnc2O[C@H]1CN(C)C(=O)Nc1ccc2c(c1)OCO2 | 5 | 2
COc1ccc2c3c([nH]c2c1)[C@H](CO)N(C(=O)c1ccncc1)CC31CCN(C(=O)Nc2cccc(F)c2)CC1 | 13 | -1
O=C(CCN1CCCCC1)N[C@@H]1C=C[C@H](CC(=O)N2CCC(Cc3ccccc3)CC2)O[C@@H]1CO | 4 | 9
COc1ccc(NC(=O)N(C)C[C@H]2Oc3ccc(NC(=O)Cn4cnnn4)cc3C(=O)N([C@H](C)CO)C[C@H]2C)cc1 | -14 | -14
C[C@H]1CN([C@@H](C)CO)C(=O)Cc2cc(NC(=O)CCCCCC(=O)Nc3ccccc3N)ccc2O[C@@H]1CN(C)CC1CC1 | -3 | -2
O=C(C1CCC1)N1CC2(C1)[C@@H](c1ccccc1)[C@H](CO)N2C(=O)CC1CC1 | 0 | -2
COc1ccc2c3c([nH]c2c1)[C@H](CO)N(C(=O)CN1CCOCC1)CC31CCN(CC2CCCC2)CC1 | 1 | 1
CN1C(=O)c2cc(NC(=O)c3cccc(C(F)(F)F)c3)ccc2OC[C@H]2O[C@@H](CC(=O)NCCN3CCCC3)CC[C@H]21 | -17 | -11
